PABP FP inh: PABP-poly(A) binding inhibition. P11940. PABP-poly(A) RNA binding, fluorescence polarization. inhibition, % at 35 µM. actives 1% (n = 290,000). AID 2014;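 active = 50% or more with normal probe brightness, or confirmed in later tests; about a fifth of its hits are not listed in these tables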;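 also: calls also rest on retests at 20 µM and on dose response follow-up; controls were probe without protein and protein plus probe with vehicle; some compounds called inactive have numbers as strong as hits; many hits fall short of the cut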
CSC inhib: cancer stem cell inhibition; cancer stem cell-like cells viability, luminescence; inhibition, % at 7.5 µM; actives 1.1% (n = 300,000); AID 2717;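 active = mean at 75% or more and at least half the replicates too; tested in HMLE shEcad cells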;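 also: 0% = median of negative and 100% = median of positive control wells; the first replicate is given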
Env fusion inh: HIV envelope-mediated fusion inhibition | actives 1.1% (n = 360,000) | AID 651610 | inhibition, % at 12.3 µM | HeLa-JRFL Env/CEM21 cell fusion, luciferase;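 active = mean replicate inhibition score of at least 50 and every replicate individually at or above 50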;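 also: 0% = plate neutral controls and 100% = maraviroc near 300 nM; one replicate is shown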
eIF4H inh: inhibitors of RNA binding by human eIF4H; inhibition, % at 35 µM; eIF4H fluorescence polarization binding assay; Q15056; actives 0.94% (n = 290,000);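 active = 50% or more with normal probe brightness, or confirmed in later tests; about a fifth of its hits are not listed in these tables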;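 also: calls also rest on retests at 20 µM and on dose response follow-up; 0% = protein and probe with vehicle and 100% = probe without protein; strong numbers were not always called active; many hits fall short of the cut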
Rce1 inhib: blocks yeast Ras-converting enzyme; Q03530; yeast membranes, quenched prenylated peptide cleavage fluorescence; calls only; actives 0.27% (n = 290,000);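 active = fall in fluorescence gain of 50% or more versus controls, with final raw signal at or below 3038400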;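 also: plate controls were neutral control wells for no effect and wells lacking membranes for full effect; tested at 10 µM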
Target sequence (Q03530 whole entry, looked up): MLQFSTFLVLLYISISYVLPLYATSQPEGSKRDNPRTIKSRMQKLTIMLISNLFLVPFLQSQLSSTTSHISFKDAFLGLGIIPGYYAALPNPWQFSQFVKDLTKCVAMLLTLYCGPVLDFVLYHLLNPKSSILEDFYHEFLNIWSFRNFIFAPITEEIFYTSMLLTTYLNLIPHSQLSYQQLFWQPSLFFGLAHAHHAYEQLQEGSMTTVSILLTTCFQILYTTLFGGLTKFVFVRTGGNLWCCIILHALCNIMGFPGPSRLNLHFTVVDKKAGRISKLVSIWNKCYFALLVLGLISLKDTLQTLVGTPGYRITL
MT1-MMP act inh: blocks activation of human MT1-MMP; P50281; HT1080 RFP-PRO-GFP cells, GFP/RFP ratio fluorescence, overnight; percent of plate control window, DMSO zero; GFP/RFP ratio change, % at 20 µM; actives 0.061% (n = 360,000);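 active = GFP/RFP ratio change of at least 30% with cell ATP level not reduced by more than half and red fluorescence within 50% of control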; also: strong numbers were not always called active
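Assay system: RFP-PRO-GFP reporter HT1080 cells; read-out basis: GFP/RFP fluorescence ratio; benchmarks: DMSO wells and RFP-L50D-GFP cells; doses: 20 µM single dose, 1% DMSO; schedule: overnight cell settling, then overnight compound exposure, 37 °C, 5% CO2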
Yeast UUG start: alters start codon recognition fidelity in yeast | AID 602363 | activity score, % at 18.7 µM | S. cerevisiae UUG-firefly luciferase reporter, luminescence/redox ratio | actives 0.13% (n = 350,000);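 active = replicate mean at a twofold rise or more, about +100% in these data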;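 also: firefly luciferase made from a UUG start codon reports start codon fidelity; reporter light over untreated wells divided by growth signal over untreated wells; some hits fall short of that in this replicate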
eIF4H inh retest: also measured in eIF4H inh; calls as there; inhibition, %; compound at 20 µM; confirmation average;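 mean of two retest wells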
PABP FP inh retest: further read-out of PABP FP inh, marked with its call; inhibition, %; compound at 20 µM; confirmation repeats;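 mean of two retest wells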
MT1-MMP act inh RFP: second read-out of MT1-MMP act inh, no call of its own (marks repeat the call); RFP signal change, %; measured here: RFP expression control read;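 0 = vehicle wells; hits needed this value within 50% of zero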
* = called active by the depositor; i = inactive; x = not tested or not shown; + = active, no number; & = joins results of further samples.

Start of the data: the first two compounds, ahead of the listing:
SMILES	PABP FP inh	CSC inhib	Env fusion inh	eIF4H inh	Rce1 inhib	MT1-MMP act inh	MT1-MMP act inh RFP	Yeast UUG start	others
CCCCCCn1c(SCC(=O)c2c(N)n(C)c(=O)n(C)c2=O)nc2ccccc21	-4	2	x	8	i	2	0	-23
COc1ccccc1CCC(=O)N1CCN(S(=O)(=O)c2cccc(F)c2)CC1	x	1	-1	x	i	2	-1	3

The listing (from the top)
SMILES	PABP FP inh	CSC inhib	Env fusion inh	eIF4H inh	Rce1 inhib	MT1-MMP act inh	MT1-MMP act inh RFP	Yeast UUG start	others
CCCCCCn1c(SCC(=O)c2c(N)n(C)c(=O)n(C)c2=O)nc2ccccc21	-4	2	x	8	i	2	0	-23
COc1ccccc1CCC(=O)N1CCN(S(=O)(=O)c2cccc(F)c2)CC1	x	1	-1	x	i	2	-1	3
Cc1cc(CSc2ccccc2C(=O)O)on1	11	-11	-7	0	i	4	2	-13
NC(=O)COC(=O)[C@H](Cc1ccccc1)NS(=O)(=O)c1ccc2c(c1)OCCO2	x	x	0	x	x	6	-1	-9
O=C(Nc1cccc2ncccc12)c1ccccc1[N+](=O)[O-]	-7	-14	-101	-9	i	-1	2	-26
CCS(=O)(=O)CCSc1nc(C)cc(C)c1C#N	11	-4	x	8	i	-3	0	-17
CCNC(=O)Oc1ccc(-c2csnn2)cc1	-11	-9	9	5	i	-3	-4	x
O=C(COC(=O)c1ccc(S(=O)(=O)N2CCCC2)cc1)NCc1ccccc1	5	-3	x	-9	+	2	4	-8
CCOC(=O)C1CCCN(S(=O)(=O)CCNC(=O)c2cccc(OC)c2)C1 (centres undefined)	x	5	x	x	i	1	1	17
C[C@H](NC(=O)Cc1cccc2ccccc12)C(=O)N1CCCN(C)CC1	3	-12	-6	5	i	5	5	-16
CC(C)SCCCOc1ccc(C(C)(C)C)cc1	13	7	x	1	i	3	7	-10
CCc1ccc(S(=O)(=O)NCc2ccc(C(=O)NCCN(Cc3ccccc3)C(C)C)cc2)cc1	x	x	10	x	x	-1	-11	-2
C=CCN(CC=C)CCOc1ccccc1	-4	-9	15	8	i	-1	-2	x
O=C(O)c1cc(S(=O)(=O)N2CCCCC2)ccc1Cl	1	8	4	7	i	5	-3	-10
COc1cccc(OC)c1C(=O)NCC12CC3CC(C1)CC(CNC(=O)c1c(OC)cccc1OC)(C3)C2	3	-5	4	0	i	-1	2	-5
COc1ccc(Cl)cc1-c1csc(N)n1	6	-15	-6	-2	i	0	3	x
C=CCN(C(=O)CNC(=O)c1ccco1)C(C(=O)NC1CCCCC1)c1cccnc1 (centres undefined)	9	-13	14	-2	i	0	-1	-2
CC(Sc1nc(N2CCOCC2)c2c(c1C#N)CC(C)(C)OC2)C(=O)Nc1ccccc1 (centres undefined)	5	x	-9	0	i	-3	-4	-2
COc1cc(CCC(=O)N2CCN(c3ccccc3Cl)CC2)cc(OC)c1OC	10	-12	1	-2	i	1	2	-8
CC(=O)c1cccc(N(CC(=O)N2CCCCC2)S(C)(=O)=O)c1	6	x	-9	-3	i	2	3	-14

3 entries drawn at random from the list so far, as already listed:
SMILES	PABP FP inh	CSC inhib	Env fusion inh	eIF4H inh	Rce1 inhib	MT1-MMP act inh	MT1-MMP act inh RFP	Yeast UUG start	others
CCc1ccc(S(=O)(=O)NCc2ccc(C(=O)NCCN(Cc3ccccc3)C(C)C)cc2)cc1	x	x	10	x	x	-1	-11	-2
C=CCN(CC=C)CCOc1ccccc1	-4	-9	15	8	i	-1	-2	x
CC(=O)c1cccc(N(CC(=O)N2CCCCC2)S(C)(=O)=O)c1	6	x	-9	-3	i	2	3	-14

Going on with the list.
SMILES	PABP FP inh	CSC inhib	Env fusion inh	eIF4H inh	Rce1 inhib	MT1-MMP act inh	MT1-MMP act inh RFP	Yeast UUG start	others
CSc1ccc(Cn2c(C)c(C(=O)NCc3cccc(Cl)c3)sc2=O)cc1	x	x	5	x	x	9	-2	-14
CN(Cc1ccccc1)C(=O)c1ccc2c(c1)OCO2	-4	-2	-17	-4	i	-3	2	x
COc1cc(/C=N/Nc2nc3ccccc3[nH]2)cc(OC)c1O	10	3	x	-4	i	7	-2	x
CS(=O)(=O)N1CCCCC1c1cc(C(=O)NCc2ccccc2)no1 (centres undefined)	x	x	-40	x	x	3	3	-34
O=C(NCCc1nc2ccccc2[nH]1)/C(=C/c1ccc2c(c1)OCO2)NC(=O)c1ccc(Cl)cc1Cl	-1	-5	x	-4	i	2	-12	x
Cc1c(C(=O)N(C)C)c2cc(Cl)ccc2n1O	-6	-14	-24	-3	i	-8	1	x
Cc1sc2nc(-c3cccs3)oc(=O)c2c1C	-2	6	-4	3	i	0	0	-12
COc1cc(Cl)c(C)cc1NC(=O)COC(=O)CCc1nc2ccccc2c(=O)[nH]1	x	-7	x	x	i	4	-3	x
COc1ccc2[nH]c(=O)c(CN(CCCN3CCOCC3)C(=O)NCc3ccccc3)cc2c1	-3	-11	x	-7	i	3	4	-20
Fc1ccc(-c2csc(Nc3ccccn3)n2)c(F)c1	10	0	-212	2	i	-1	-19	-27
C=CCn1c(SCC(=O)N(CC)C2CCS(=O)(=O)C2)nc2ccccc2c1=O (centres undefined)	22	-9	-8	-11	i	-1	1	x
CCC(=O)Nc1ccc2c(c1)ncn2-c1ccccc1C	-10	-12	-28	-2	i	1	4	-15
CCOc1ccc(NC(=O)CN(C)C(=O)Cc2sc(C)nc2-c2ccc(F)cc2)cc1OCC	x	-5	4	x	x	-1	0	-6
C=CCc1ccc(OCCCN2CCCC(C)C2)c(OC)c1 (centres undefined)	-5	1	-6	-8	i	1	4	3
Cn1nccc1C(=O)OCC(=O)Nc1ccccc1Cl	66	x	1	-5	i	-4	2	-35	eIF4H inh retest=4;PABP FP inh retest=5
Cc1ccc(OCC(=O)Nc2nnc(S(=O)(=O)N3CCCCC3)s2)cc1	23*	-9	-8	83*	i	-4	2	3	eIF4H inh retest=83*;PABP FP inh retest=70*
CC1CC1C(=O)N(C)CC(=O)Nc1ccc(Cl)c(C(F)(F)F)c1 (centres undefined)	x	-10	8	x	i	4	1	-2
O=C(O)CN1C(=O)/C(=C\c2ccccc2OCc2ccc(Cl)cc2Cl)SC1=S	22	48	35	15	i	-1	-1	-14
O=C(CSc1ccccn1)Nc1nc2ccc(Br)cc2s1	-14	-4	x	-18	i	0	3	-9
Cc1nc(SCC(=O)Nc2cc(S(=O)(=O)N3CCOCC3)ccc2Cl)nc(C)c1C	x	x	1	x	x	4	-5	-16
Cc1c(NS(=O)(=O)c2cc(C(=O)Nc3ccc(F)cc3Cl)ccc2Cl)c(=O)n(-c2ccccc2)n1C	x	x	-18	x	x	1	0	16
CCOc1ccc(NC(=O)Nc2nnc(CC(=O)NCc3ccccc3)s2)cc1	-2	-1	-2	-2	x	2	-3	x
CSc1ncc(Cl)c(C(=O)NCc2cccnc2)n1	-6	2	-5	0	i	-5	-3	-10
CCOc1ccccc1CN1CCN(C2CCOCC2)CC1CCO (centres undefined)	2	6	-3	2	i	3	7	-3
CSC1=N/C(=C\c2cccc(Cl)c2)C(=O)N1N(C)C	-11	-4	-13	3	i	1	2	x
CN(C)S(=O)(=O)c1ccc(C(=O)NNC(=O)c2ccccc2-n2cccc2)cc1	x	-15	2	x	x	-2	0	-9
O=C(O)CCC(NC(=O)c1ccc(Cl)cc1)C(=O)O (centres undefined)	5	-1	12	8	i	4	8	x
CCN(CC)C(=O)CSc1nc(-c2ccccc2)cc(=O)[nH]1	-4	4	9	-1	i	-3	0	x
CC1=NN(C(=O)c2c(Br)cnn2C)C(O)(C(F)(F)F)C1 (centres undefined)	9	-7	x	6	i	10	7	-13
COC(=O)C(Cc1ccc(O)cc1)NC(=O)c1ccc2c(c1)OCCO2 (centres undefined)	15	-5	-13	2	i	0	-1	-72
CSc1ccc(/C=N/NC(=O)COc2ccc(Br)cc2Cl)cc1	10	-9	7	-18	i	6	2	x
CCN(CC)C(=O)Cn1cc(S(=O)(=O)CC(=O)Nc2ccc(F)cc2)c2ccccc21	-2	-6	-3	4	i	-2	-1	-4
COc1ccc(-n2nnc3c(=O)n(Cc4cc(C)ccc4C)cnc32)cc1	-4	0	x	-2	i	4	-1	-17
CCN(CC)C(=O)c1sc(NC(=O)Cc2cccs2)c(C#N)c1C	1	-4	8	-3	i	-2	-1	4
O=C1NC2(CCCCCC2)C(=O)N1Cc1ccc(F)cc1Cl	9	x	37	-8	i	0	2	-14
Cc1ccc(C(=O)NCC(=O)OCC(=O)c2ccc3c(c2)NC(=O)CO3)cc1	-4	-11	6	2	i	1	4	x
O=C(O)/C=C/C(=O)N(Cc1ccccc1)Cc1ccco1	46	x	-19	-10	i	-1	3	x
O=c1[nH]c2ccccc2n1CCC1CCCCC1	-5	-9	x	-4	i	4	-8	-1
COC(=O)c1ccc(C(=O)OC)c(NC(=O)CN2CCC(C)CC2)c1	-2	-4	18	-3	i	-1	-6	x
FC(F)(F)c1cc(-c2cccs2)nc(-n2cc(Br)cn2)n1	3	x	-464	1	i	0	1	3
CCN(CC)S(=O)(=O)c1cccc(NC(=O)COC(=O)c2n[nH]c(=O)c3ccccc23)c1	68*	0	6	-1	i	2	-4	x	eIF4H inh retest=30;PABP FP inh retest=51*
COc1cc(OC)c2cc(C(=O)N/N=C/c3ccccc3O)[nH]c2c1	1	71	0	-6	i	-2	-9	-12
Cc1cc2nc(SCC(=O)N(C)C)c3c(c2cc1C)CCCC3	10	7	x	11	i	-10	-4	-41
O=[N+]([O-])c1cccc(/C=N/n2c(COc3ccccc3)n[nH]c2=S)c1	-5	4	-1	-8	i	7	11	-22
CC(=O)Nc1ccc(C2=CC(=O)C[C@H](c3ccc(Cl)cc3)C2)cc1	x	29	19	x	x	-18	2	-10
CSc1nc2nccc(-c3ccc(Oc4ccccc4)cc3)n2n1	7	-8	x	1	x	-1	-4	-6
CC1(C)Cc2c(sc3nnn(CC(=O)Nc4ccccc4)c(=O)c23)CO1	5	6	-10	-4	i	-2	-7	-10
Cc1ccc(NS(=O)(=O)c2cccs2)c(C)c1	-3	-12	-4	-13	x	2	3	-11
COc1ccccc1NC(C)C(=O)Nc1ccc(C(C)=O)cc1 (centres undefined)	41	-3	x	-1	i	5	8	x
C=CCOC(=O)C1=C(C)NC(SC)=C(C#N)C1c1ccc(OCC)cc1 (centres undefined)	-6	-11	12	-4	i	0&-2	-6&-6	-28&-18
CC(C)N(Cc1ccccc1)C(=O)COC(=O)C1CCN(S(=O)(=O)c2ccc3c(c2)OCCO3)CC1	x	-1	-14	x	i	2	1	-2
CC(NC1CCCCC1)C(=O)NN=C(c1ccccc1)c1ccccc1 (centres undefined)	4	-15	24	-13	i	-2	-3	x
CC1CCCCN1C(=O)C1CCCN(S(=O)(=O)c2cccc3nsnc23)C1 (centres undefined)	7	-6	4	-14	i	0	3	-18
Cc1ccccc1CN1C(=O)c2ccccc2S1(=O)=O	10	x	1	-4	i	-3	-2	-8
Cc1ccc(NC(=O)COC(=O)c2ccc(-n3cccn3)cc2)cc1C	x	x	-4	x	x	2	5	-7
O=C(O)c1cccc(S(=O)(=O)N2CCN(C(c3ccccc3)c3ccccc3)CC2)c1	-4	-2	1	-1	i	-3	-1	x
COC(=O)CSc1nnc(-c2cccs2)n1-c1ccc(Cl)cc1	6	2	-41	-6	i	-4	-5	0
CCc1c(Cl)nc(N)nc1Nc1ccccc1Cl	x	x	14	x	x	1	-6	-12
COc1ccccc1CN=c1c([N+](=O)[O-])nn(-c2ccc3c(c2)OCCO3)n1O	3	-13	-6	8	i	2	-1	x
Cc1ccc(/C=C/C(=O)NC2=NCCS2)cc1	2	49	x	1	i	1	-4	-13
Nc1ccc2sc(N)nc2c1	x	-4	-11	x	x	3	4	-24

This is a random part of the collection (roughly 2.9% active in at least one column).
